GALR2 agonist = agonists of human galanin receptor 2 (GALR2) | GALR2-expressing cells, agonist activation read-out | activation, %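 (tested at 5 µM)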 | 140,000 tested, 0.48% active | AID 803;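 active = above mean plus 3 SD of all compounds, about 5% in these data, not always enough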;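 also: 0% = vehicle buffer wells and 100% = reference agonist at full effect; tested in CHO reporter cells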
Target sequence (O43603 whole entry, looked up): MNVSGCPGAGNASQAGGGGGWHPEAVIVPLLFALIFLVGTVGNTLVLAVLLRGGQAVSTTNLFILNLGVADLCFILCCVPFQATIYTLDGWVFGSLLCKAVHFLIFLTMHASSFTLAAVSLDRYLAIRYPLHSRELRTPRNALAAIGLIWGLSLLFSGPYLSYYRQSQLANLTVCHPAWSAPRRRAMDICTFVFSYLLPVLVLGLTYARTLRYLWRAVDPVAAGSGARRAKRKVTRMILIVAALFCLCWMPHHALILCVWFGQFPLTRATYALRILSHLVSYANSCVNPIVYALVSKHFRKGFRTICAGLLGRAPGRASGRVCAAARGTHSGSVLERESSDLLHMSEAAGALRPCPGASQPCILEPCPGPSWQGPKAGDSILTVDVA
PKD1 kinase inh = PKD1 (human) kinase inhibition; Q15139; AID 797; PKD1 kinase fluorescence polarization assay; 200,000 tested, 0.056% active; inhibition, %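 (about 10 µM by stock and volumes)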;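 active = inhibition of 50% or more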;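 also: controls were vehicle for no effect and a reference inhibitor for full effect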
RGS16-Gao HTS = modulates binding between human RGS16 and Galphao. bead-based flow cytometry RGS16-Galphao binding, fluorescence; actives lie on both sides. binding response (% of control), % at 10 µM. 220,000 tested, 0.38% active;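 active = below 25% or above 175%, edge rows of some plates excepted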;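 also: Galphao activated by GDP with aluminum fluoride before binding; 100% = wells without compound and 0% = beads without RGS; some results beyond the cut were filed as inactive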
Target sequence (O15492 whole entry, looked up): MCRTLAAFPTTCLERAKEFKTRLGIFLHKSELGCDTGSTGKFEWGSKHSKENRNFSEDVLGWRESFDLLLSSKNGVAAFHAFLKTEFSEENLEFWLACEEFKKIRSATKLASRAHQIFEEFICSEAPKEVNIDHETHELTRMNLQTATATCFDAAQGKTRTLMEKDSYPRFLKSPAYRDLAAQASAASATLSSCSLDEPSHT
Target sequence (P09471 whole entry, looked up): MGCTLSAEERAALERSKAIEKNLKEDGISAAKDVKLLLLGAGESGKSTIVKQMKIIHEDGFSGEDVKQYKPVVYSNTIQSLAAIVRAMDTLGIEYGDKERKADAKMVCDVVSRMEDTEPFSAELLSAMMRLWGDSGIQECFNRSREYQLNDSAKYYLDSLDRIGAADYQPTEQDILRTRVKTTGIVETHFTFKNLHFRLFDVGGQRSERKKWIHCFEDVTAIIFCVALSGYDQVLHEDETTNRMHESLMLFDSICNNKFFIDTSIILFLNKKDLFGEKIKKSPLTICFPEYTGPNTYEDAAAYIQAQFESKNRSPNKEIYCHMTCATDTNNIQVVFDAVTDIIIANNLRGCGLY
INS promoter inh = TRM-6 insulin promoter activity inhibition; TRM-6 cells (human fetal islet line), insulin promoter-eGFP reporter, imaging; reporter expression induced with tamoxifen; inhibition, % at 2 µM; 130,000 tested, 0.9% active;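 active = inhibition above the mean plus 3 SD, with well images judged a real hit on visual review, cut at about 60% in these data, passing the limit was not always enough; inconclusive = inhibition over the cutoff but images rejected on review; inactive = inhibition not above the cutoff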
HSV augment = HSV replication enhancement; HSV replication augmentation in cells, fold increase; maximum fold increase; 220,000 tested, 0.005% active;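 active = peak rise of 1.5-fold or more in the series; inconclusive = self-fluorescent or not available for retest; tested in PC3 cells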;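 also: first round at 10 µM; read as green reporter fluorescence; hits show the peak of a series up to 25 µM; 1 = signal of infected wells without compound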
INS promoter inh cell count = further read-out of INS promoter inh, marked with its call; normalized cell count, %; measured here: cell count, toxicity; reference of the scale not given here;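 cells exposed to compound for 48 h; stained nuclei by imaging scaled within each plate; lower means fewer cells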
HSV augment primary fold = second read-out of HSV augment, no call of its own (marks repeat the call); fold increase; compound at 10 µM; measured here: primary screen fold increase 10 uM; tested in PC3 cells;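 GFP signal in the first replicate; 1 = infected wells without compound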
Active calls of the source: *; i = inactive; ? = inconclusive; nt = not tested or not shown.

SMILES	GALR2 agonist	PKD1 kinase inh	RGS16-Gao HTS	INS promoter inh	INS promoter inh cell count	HSV augment	HSV augment primary fold
O=C(O)CNC(=O)c1ccc(OC(F)F)cc1	-2.8	35	98	53	77	i	1
Cc1ccccc1OCC(=O)Nc1ccc2c(c1)Cc1ccccc1-2	-0.5	3	100	-14	69	i	1.3
C/C(=C/C=N/Nc1nc(N2CCCCC2)nc(N2CCCCC2)n1)c1ccccc1	-1.4	-13	104	nt	nt	i	1.1
O=C(CSc1ccc(F)cc1)NC(=O)NCc1ccccc1	nt	-1	100	nt	nt	i	0.97
c1ccc(-c2csc(N3CCCCCC3)n2)cc1	-0.5	-1	104	41	81	i	0.98
O=C(O)CNC(=S)N(Cc1ccccc1Cl)C1CCCC1	nt	-1	102	nt	nt	i	0.94
Cc1ccc2nc(NC(=O)C3CCCN(S(=O)(=O)c4cnc[nH]4)C3)sc2c1 (centres undefined)	-0.6	14	122	nt	nt	i	0.86
Cc1ccc(N(CN2C(=O)C3C4CCC(C4)C3C2=O)C(=O)c2ccco2)cc1 (centres undefined)	nt	nt	104	nt	nt	i	0.97
Cc1ccccc1NC(=O)Cn1nc(-c2ccccc2)nc1-c1ccccc1	-4.3	-1	94	nt	nt	i	0.94
Nc1c(S(=O)(=O)c2cccs2)c2nc3ccccc3nc2n1Cc1ccccc1	2.2	2	106	-13	114	i	1
CCCn1c(SCC(=O)Nc2ccccc2N2CCCCC2)nc2c1c(=O)n(C)c(=O)n2C	0.6	8	101	nt	nt	i	0.79
CCCC(=O)NNc1cc(=O)c2c(=O)n(C)c(=O)n(C)c2[nH]1	-2.2	2	102	5	110	i	0.97
CCOC(=O)C1(Cc2ccccc2)CCN(Cc2csc(C(C)=O)c2)CC1	nt	9	91	nt	nt	i	1.1
CCCOc1ccc(C(=O)NNC(=S)NC(=O)c2cc(-c3ccc(Cl)cc3)nc3ccccc23)cc1	-2.9	3	107	nt	nt	i	1.1
CCOC(=O)C1=C(C)N(c2ccccc2)C(=O)/C1=C\c1cccs1	1.8	7	100	5	73	i	1.1
O=S(=O)(NCCCc1ccccc1)c1ccc(Cl)cc1	0.1	0	98	nt	nt	i	1.1
COc1ccc(C2C([N+](=O)[O-])=C(C)N(C)C(=O)N2C)cc1OC (centres undefined)	nt	3	109	15	156	i	0.95
CN(C(=O)c1ccno1)c1nnc(-c2cccnc2)s1	-3.0	11	96	nt	nt	i	0.96
Cc1ccc(-c2csc(C3=C(O)CN(NC(=O)c4ccco4)C3=N)n2)cc1	nt	nt	103	nt	nt	i	0.95
COc1cc2c(cc1NC(=O)c1cncc(Br)c1)oc1ccccc12	-1.4	8	99	-444	72	i	1.1
Cc1c(C#N)c(NC(=O)CCl)n(Cc2ccc(F)cc2)c1C	nt	3	99	nt	nt	i	1.1
COc1ccc(C(=O)CC(=O)C(=O)NCCc2cccc(C)c2)cc1	-1.0	-8	111	-10	122	i	0.99
CS(=O)(=O)N(CCc1ccccc1)CC(=O)N1CCN(c2ccccc2F)CC1	-2.2	5	775	-37	111	i	1
O=C(Oc1ccccc1N1CCOCC1)c1sccc1Br	nt	nt	101	nt	nt	i	1.1
COc1cc(NC(=S)NC(=O)c2ccc(F)cc2)ccc1NC(=O)c1ccco1	-1.2	8	108	16	104	i	0.92

Reformatted as a markdown table: entries from further up
| Compound | GALR2 agonist | PKD1 kinase inh | RGS16-Gao HTS | INS promoter inh | INS promoter inh cell count | HSV augment | HSV augment primary fold |
| --- | --- | --- | --- | --- | --- | --- | --- |
| COc1cc2c(cc1NC(=O)c1cncc(Br)c1)oc1ccccc12 | -1.4 | 8 | 99 | -444 | 72 | i | 1.1 |
| Cc1c(C#N)c(NC(=O)CCl)n(Cc2ccc(F)cc2)c1C | nt | 3 | 99 | nt | nt | i | 1.1 |
| COc1ccc(C(=O)CC(=O)C(=O)NCCc2cccc(C)c2)cc1 | -1.0 | -8 | 111 | -10 | 122 | i | 0.99 |
| CS(=O)(=O)N(CCc1ccccc1)CC(=O)N1CCN(c2ccccc2F)CC1 | -2.2 | 5 | 775 | -37 | 111 | i | 1 |
| O=C(Oc1ccccc1N1CCOCC1)c1sccc1Br | nt | nt | 101 | nt | nt | i | 1.1 |
| COc1cc(NC(=S)NC(=O)c2ccc(F)cc2)ccc1NC(=O)c1ccco1 | -1.2 | 8 | 108 | 16 | 104 | i | 0.92 |

Only INS promoter inh and RGS16-Gao HTS (three entries from above):
smiles | INS promoter inh | RGS16-Gao HTS
Cc1ccc(-c2csc(C3=C(O)CN(NC(=O)c4ccco4)C3=N)n2)cc1 | nt | 103
CCOC(=O)C1(Cc2ccccc2)CCN(Cc2csc(C(C)=O)c2)CC1 | nt | 91
CS(=O)(=O)N(CCc1ccccc1)CC(=O)N1CCN(c2ccccc2F)CC1 | -37 | 775

New compounds follow.
SMILES	GALR2 agonist	PKD1 kinase inh	RGS16-Gao HTS	INS promoter inh	INS promoter inh cell count	HSV augment	HSV augment primary fold
CCOCC(O)CS(=O)Cc1ccccc1 (centres undefined)	1.1	8	111	-42	125	i	1.1
CN(C)c1ccc(NC(=O)CSc2nc3ccccc3c(=O)n2C2CCCCC2)cc1	0.4	-2	108	56	91	i	0.9
Nc1nncn1C(=O)c1ccc(Cl)cc1Cl	nt	-1	108	nt	nt	i	0.89
O=C(NCCC1=CCCCC1)C1CCN(Cc2cnn(-c3ccccc3)c2-n2cccc2)CC1	-1.1	-3	100	nt	nt	i	0.96
Cc1ccc(N=C2NC(=O)/C(=C/C=C/c3ccco3)S2)cc1	-1.8	-3	90	nt	nt	?	nt
CC12CCC(C(=O)Nc3cccc(Cl)c3Cl)([C@H](Br)C1=O)C2(C)C (some centres undefined)	nt	nt	103	nt	nt	i	0.66
CN1CCc2c(sc(N)c2C(=O)O)C1	nt	-2	100	nt	nt	i	1.1
CCN(CC)S(=O)(=O)c1cc(C(=O)OCC(=O)Nc2c(F)cccc2F)ccc1F	0.2	-4	109	-9	84	i	0.89
O=C1c2ccccc2C(=O)c2c1cccc2N1CCCC1	-1.5	4	102	0	78	i	0.93
CCCCOc1ccc(C(=O)C(CN2CCOCC2)c2ccccc2)cc1 (centres undefined)	-2.2	-4	101	78*	83*	i	0.43
Cc1ccc(NC(=O)CN(c2ccccc2)S(=O)(=O)N(C)C)cc1C	-1.5	-6	104	6	154	i	0.89
CC(C)(C)C1CCC2(CC1)NC(CO)(CO)CO2 (centres undefined)	-0.8	-5	106	29	87	i	0.93
Cn1c(COc2ccc3ccccc3c2)nnc1SCC(=O)OC1CCCCC1	-2.0	-6	92	57	123	i	0.84
COc1ccc(-c2noc(CCC(=O)NCCN3CCN(c4ccccc4F)CC3)n2)cc1	-0.5	3	99	14	97	i	1
COC(=O)c1nn(-c2cccc(C)c2)c2nnc(Cc3ccc(C)cc3)c(=O)n12	-1.3	0	64	46	161	i	0.87
CSc1nc(C)cc(C)c1S(=O)(=O)c1ccccc1C	-2.7	15	107	46	84	i	1.1
O=C1c2ccccc2C(O)N1Cc1ccc2c(c1)OCO2 (centres undefined)	-3.7	3	99	nt	nt	i	0.92
COc1cc(NC(=O)C2CCC(CNc3c(N4CCC(C)CC4)c(=O)c3=O)CC2)cc(OC)c1 (centres undefined)	-2.1	8	140	nt	nt	i	0.97
CC(C)NC(=O)c1ccccc1NC(=O)CCc1ccccc1	-1.4	2	92	-100	81	i	0.94
CCc1ccc(NC(=O)c2cc(CC(C)C)on2)cc1	0.1	-9	97	nt	nt	i	0.8
CCC(O)(CC)C(=O)N=Nc1c(O)[nH]c2ccccc12	nt	3	104	-47	110	i	1
O=C(NNC(=O)c1sccc1-n1cccc1)c1ccccc1	-3.3	-14	98	7	97	i	0.82
CC(C)(C)C1C=C(Sc2ccccc2)C(=O)O1 (centres undefined)	0.1	-2	88	-45	106	i	0.81
Cn1c(C(F)(F)F)nc2c(=O)oc3ccccc3c21	-1.2	3	109	16	114	i	0.96
CCN1C(=O)c2ccccc2S(=O)c2ccc(C(=O)NCc3ccccn3)cc21 (centres undefined)	-0.5	-7	116	-29	100	i	0.86
Following part:
SMILES	GALR2 agonist	PKD1 kinase inh	RGS16-Gao HTS	INS promoter inh	INS promoter inh cell count	HSV augment	HSV augment primary fold
C=C(C)Cn1c(C2CC(=O)N(c3ccccc3F)C2)nc2ccccc21 (centres undefined)	0.4	-7	98	-35	110	i	0.93
Cc1nc2sc(C(c3ccco3)N3CCN(c4ccccc4F)CC3)c(O)n2n1 (centres undefined)	0.3	5	106	-80	73	i	0.91
CCOC(=O)c1cc2occc2n1CC(=O)NC1CCC(C)CC1 (centres undefined)	-0.6	-5	98	nt	nt	i	1
CCn1c(SCC(=O)NNC(=O)c2ccc(C)cc2)nnc1-c1ccco1	nt	-1	104	nt	nt	i	0.81
S=C(NCCc1ccncc1)Nc1cccc2ccccc12	nt	-2	84	nt	nt	i	0.98
O=C(CN1CCCCCC1)N/N=C/c1cccc(Cl)c1	-0.7	1	97	nt	nt	i	1.1
O=C(Nc1ccccc1-c1nc2ccccc2[nH]1)c1ccc(N2C(=O)CCC2=O)cc1	nt	0	100	-18	126	i	0.84
CC1CCN(S(=O)(=O)c2ccc(NC(=O)CN3CCOCC3)cc2)CC1	-0.7	7	93	-91	38	i	0.96
CC(=O)Nc1ccc(-n2nnnc2SCC(=O)N2CCN(C(=O)c3ccco3)CC2)cc1	-0.6	2	102	24	117	i	0.89
COC(=O)c1ccc(N2CCN(C(C)=O)CC2)c(NC(=O)c2cccnc2)c1	nt	-6	111	13	92	i	1
CCOC(=O)c1c(NC(N)=O)sc(C)c1C	-2.9	-13	107	-30	66	i	1.2
O=C(O)c1ccc(NS(=O)(=O)c2ccc3c(c2)C2C=CCC2C(c2ccccc2F)N3)cc1 (centres undefined)	nt	-2	91	nt	nt	i	1.2
c1ccc(-n2ncc3cccnc32)cc1	nt	nt	99	nt	nt	i	0.84
Cc1nnc2ccc(N3CCN(C(=O)c4ccccc4)CC3)nn12	-3.7	8	106	nt	nt	i	0.94
Cc1noc(C)c1CSc1nc2ccccc2s1	-0.3	-2	105	-3	96	i	0.99
O=C(NC1CCCCC1)Nn1c(-c2ccccc2)nc2ccccc2c1=O	0.7	9	102	nt	nt	i	0.86
CCn1c(SCC(=O)NCCc2ccccc2)nnc1-c1ccco1	-0.7	-1	117	-41	85	i	0.9
CCc1ccccc1N(CC)C(=O)CCc1nc(-c2ccc(C)cc2)no1	-0.8	0	66	4	104	i	0.88
O=C(Nc1nnc(SCC(=O)N2CCCc3ccccc32)s1)c1cccc2ccccc12	0.4	-14	108	0	110	i	0.85
CN1CCN(S(=O)(=O)c2ccc(N3CCN(S(=O)(=O)/C=C/c4ccccc4)CC3)nc2)CC1	3.2	10	104	nt	nt	i	0.86

Reprinted at random: four records from the list
SMILES	GALR2 agonist	PKD1 kinase inh	RGS16-Gao HTS	INS promoter inh	INS promoter inh cell count	HSV augment	HSV augment primary fold
CCOC(=O)C1(Cc2ccccc2)CCN(Cc2csc(C(C)=O)c2)CC1	nt	9	91	nt	nt	i	1.1
CCN1C(=O)c2ccccc2S(=O)c2ccc(C(=O)NCc3ccccn3)cc21 (centres undefined)	-0.5	-7	116	-29	100	i	0.86
C=C(C)Cn1c(C2CC(=O)N(c3ccccc3F)C2)nc2ccccc21 (centres undefined)	0.4	-7	98	-35	110	i	0.93
c1ccc(-c2csc(N3CCCCCC3)n2)cc1	-0.5	-1	104	41	81	i	0.98

Assay outcomes: PubChem, several laboratories
